Bead autofluor: flagged as autofluorescent in microsphere protease counterscreen; compound autofluorescence counterscreen, microsphere flow cytometry; stronger effect = higher value; fluorescence intensity (no concentration beside the values); 360,000 tested, 3.1% active;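 active = at least 3 SD above the mean of all compounds, about 16000 in these data; inconclusive = too few beads counted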;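 note: 100 nL of 1 mM stock went into each well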
PrP UTR inh: suppresses PrP 5' UTR mRNA reporter expression; cell-based PrP 5' UTR mRNA reporter, plate reader; inhibition, % (test concentration not listed); 340,000 tested, 0.35% active; AID 488862;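 active = every replicate at 50% or more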;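 note: 0 = median of the neutral control wells; tested in H4 reporter cells; numbers are from one replicate; inactives centre near -14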
Starred values were filed as active, the others as inactive; ? = inconclusive. The list is partial; count on the stated rates, not on these rows.

compound,Bead autofluor,PrP UTR inh
O=C1c2ccccc2C(=O)c2c1ccc(O)c2O,5732,-3
Fc1ccc(N2C(=S)SC(=Nc3ccccc3)C2=Nc2ccccc2)cc1,2846,-66
CN1CCc2cc3c(cc2C1)OCO3,4782,-14
CC(C)NC(=O)N(C)C[C@H]1Oc2c(NS(=O)(=O)c3ccccc3)cccc2C(=O)N([C@H](C)CO)C[C@@H]1C,3667,-12
O=C(C1CCN(S(=O)(=O)c2ccc(Cl)s2)CC1)N1CCN(c2ccccc2)CC1,5739,-14
CC(C)C[C@@H](CNCC(=O)[C@H](Cc1c[nH]c2ccccc12)NC(=O)c1[nH]cnc1C(=O)N[C@H](CN)CC(C)C)NC(=O)c1nc[nH]c1C(=O)N[C@@H](CC(=O)O)C(=O)O,3403,1
Cc1ccc(N(O)C(C)(C)C)cc1,3548,-12
OCCN1CCN(CCO)C1=S,3977,-18
COC(=O)C1=C(c2cccc(OCc3ccccc3)c2)C[C@@H]2CC[C@H]1N2C(=O)NCCCOC(C)C,4080,-26
COC(=O)c1c[nH]c2c1-c1cc(C(=O)OCc3ccccc3)n(S(=O)(=O)c3ccc(C)cc3)c1C(=O)C2=O,3455,36
CC1CCC(C(O)(C(=O)O)C2CCCCC2)CC1C (stereo unspecified),3630,-11
COc1ccc([C@H]2CC(=O)C=C(c3cc(OC)ccc3OC)C2)cc1,2894,-20
CN(NC(=O)NN(C)C(=O)c1ccccc1)C(=O)c1ccccc1,3678,-15
O=C1CCCCC1Nc1ccc(Br)cc1 (stereo unspecified),2836,-11
O=C(Nc1cccc(S(=O)(=O)N2CCOCC2)c1)c1cc(S(=O)(=O)N2CCOCC2)c(Cl)cc1Cl,3913,-13
COc1ccc(NC(=O)N(C)C[C@H]2Oc3c(NC(=O)Cc4ccccc4)cccc3C(=O)N([C@H](C)CO)C[C@@H]2C)cc1,4015,2
O=C(CNS(=O)(=O)c1ccccc1)N/N=C/c1ccncc1,3969,-1
COC(=O)C[C@H]1C=C[C@@H](C(C(=O)OC)C(=O)OC)CN1C(C)=O,3524,-6
CCOC(=O)N1CCc2cc(OC)c(OC)c3c2c1cc1cc(OC)c(OC)cc13,3564,-23
COc1cc(OC)cc(C(=O)NCC(=O)OCC(=O)NCc2ccco2)c1,3815,-19
CC1([N+](=O)[O-])COP(=O)(Nc2ccc(Cl)cc2)OC1 (stereo unspecified),3550,-13
CC1(C)O[C@@H]2[C@H](O1)[C@@H](CO)O[C@H]2n1cc(Br)c(=O)[nH]c1=O,2803,5
NC(N)=Nc1ccc2[nH]c3c(c2c1)C[C@@]1(O)[C@H]2Cc4ccc(O)c5c4[C@@]1(CCN2CC1CC1)[C@H]3O5,4510,-19
O=C1NC(c2ccccc2)N=C2Oc3ccccc3C=C12 (stereo unspecified),4791,-17
O=C1N[C@@H](c2ccccc2)COC(=O)[C@@H](Cc2ccc(F)cc2)C/C=C\C[C@@H]1CC(=O)N(CCO)Cc1ccccc1,3728,-8
COCCCNC(=O)CC1C[C@H](C(=O)N2CCOCC2)[C@@]2(C)c3[nH]c4ccc(OC)cc4c3CCN2C1=O (stereo partly specified),3688,-20
COc1ccc2c(c1)OC[C@H]1[C@H]2N2C(=O)CN(Cc3ccc(F)cc3)C(=O)[C@@]2(C)[C@H]1c1ccccc1,4083,-4
C[C@H]1CN([C@@H](C)CO)C(=O)c2cccc(NC(=O)C3CC3)c2O[C@H]1CN(C)Cc1ccc(-c2ccccc2)cc1,3202,-5
CN1C[C@@H]2[C@@H]3C(=O)N(Cc4ccccc4)C(=O)[C@@H]3[C@](Cc3ccccc3)(C1=O)N2C(=O)c1ccccc1,3412,1
COc1cc(/C=C/CNC[C@H]2O[C@@H](n3cnc(C(N)=O)n3)[C@H](O)[C@@H]2O)ccc1O,3181,-8

Rewritten with values under each structure: 4 of the compounds above
Every second line gives: Bead autofluor | PrP UTR inh
CC1(C)O[C@@H]2[C@H](O1)[C@@H](CO)O[C@H]2n1cc(Br)c(=O)[nH]c1=O
    2803 | 5
NC(N)=Nc1ccc2[nH]c3c(c2c1)C[C@@]1(O)[C@H]2Cc4ccc(O)c5c4[C@@]1(CCN2CC1CC1)[C@H]3O5
    4510 | -19
O=C1NC(c2ccccc2)N=C2Oc3ccccc3C=C12 (stereo unspecified)
    4791 | -17
O=C1N[C@@H](c2ccccc2)COC(=O)[C@@H](Cc2ccc(F)cc2)C/C=C\C[C@@H]1CC(=O)N(CCO)Cc1ccccc1
    3728 | -8

(more compounds)
compound,Bead autofluor,PrP UTR inh
CC1=CC2OC3CC4OC(=O)C=CC=CC(=O)OCCC(C)C(O)C(=O)OCC2(CC1O)C4(C)C31CO1 (stereo unspecified),3678,94*
C=C[C@@H](C)N(Cc1ccc(OC)cc1)S(=O)(=O)N(Cc1ccccc1)[C@H](C=C)C(C)C,3732,-3
O=C(O)c1cc([N+](=O)[O-])ccc1Oc1ccccc1,3770,-19
CCCCCCCN1C(Nc2ccccc2)=NC[C@@H]1C,2803,-6
COC(=O)C1=C(c2cccc(C#N)c2)C[C@@H]2CC[C@H]1N2C(=O)NCc1ccco1,3608,-20
CCOC(=O)C1=C(O)C(=O)C(C(=O)OCC)C1 (stereo unspecified),3656,-21
COC(=O)C1=C(C)NC(=O)NC1c1ccc(-c2ccc(Cl)cc2)o1 (stereo unspecified),4809,-16
C[C@@H](NC(=O)c1nc[nH]c1C(=O)N(C)Cc1ccccc1)c1ccccc1,3639,-15
O=c1[nH]c(=O)n([C@H]2C[C@H](O)[C@@H](CO)O2)cc1I,5419,-35
COc1cc([C@@H]2CC=C(C(=O)O)[C@H](c3ccccc3)N2S(=O)(=O)c2ccc(C)cc2)cc(OC)c1OC,3424,-14
CC1CC(NC(=O)c2c(O)nc3ccccn3c2=O)CC(C)(C)C1 (stereo unspecified),?,-13
O=C1C=CC2(C=C1)O[C@H](Cc1ccccc1)[C@@H](Cc1ccccc1)O2,4175,-8
O=C(N/N=C/c1ccco1)c1ccc(NC(=O)C2CCCCC2)cc1,5311,3
O=C(NCCc1ccccc1O)c1cc2c(cc1[N+](=O)[O-])OCO2,2965,-13
O=C1C=C(c2cc3ccccc3s2)C[C@@H](c2ccc(F)cc2)C1,3724,-5
O=C1N[C@@H](Cc2ccccc2)COC(=O)[C@H](Cc2ccc(F)cc2)C/C=C\C[C@@H]1CC(=O)N(CCO)Cc1ccccc1,3554,-33
N#CC1c2ccccc2-n2nncc2CN1S(=O)(=O)c1cc(Cl)cc(Cl)c1 (stereo unspecified),3825,-14
CC(=O)OCC1OC(COC(C)=O)(c2ccc(C)cc2)C(OC(C)=O)C1OC(C)=O (stereo unspecified),3748,-13
CC(C)c1cccc(C(C)C)c1OC(=O)[C@H]1OC(c2ccc(Br)cc2)=C[C@@H]1c1ccc(Br)cc1,5133,0
COc1ccc2c(c1)C13CCN(C)C(C2)C1CCC1(C3)OCCO1 (stereo unspecified),3721,-3
OC[C@@H]1[C@@H](c2ccc(F)cc2)C(c2ccccc2)=NN1c1ccccc1,3973,-24
COC(=O)C1=C(c2ccc(F)cc2OCc2ccccc2)C[C@@H]2CC[C@H]1N2C(=O)NCc1ccccc1,2901,16
CCN1C[C@@H]2[C@@H]3C(=O)N(C)C(=O)[C@@H]3[C@](C)(C1=O)N2C(=O)c1ccc(Br)cc1,3339,-11
Cn1cccc1C(=O)OCC(=O)N1CCc2ccccc21,3913,-84
COc1cc(NC(=O)COC(=O)C2CC(O)CN2S(=O)(=O)c2ccc(Cl)cc2)c(C)cc1[N+](=O)[O-] (stereo unspecified),3555,-19
CCC/C(C(=O)NCCO)=C1/c2ccccc2C(=O)N1c1ccccc1,4140,-24
Cc1ccc(S(=O)(=O)c2ccsc2NC(=O)c2ccccc2)cc1,3673,23
COc1ccc(CN2CCC3CC2c2cc(-c4cccc(C)c4)ccc23)cc1 (stereo unspecified),3963,-21
O=C(O)c1cccc2c1-c1ccc(Cl)cc1C2=O,3308,8
COc1ccc([C@@H]2CC=C(C(=O)O)[C@H](c3cccc(Cl)c3)N2S(=O)(=O)c2ccccc2C)cc1,3914,-35

One compound at a time, from the list above:
`C=C[C@@H](C)N(Cc1ccc(OC)cc1)S(=O)(=O)N(Cc1ccccc1)[C@H](C=C)C(C)C` is entered as Bead autofluor: 3732; PrP UTR inh: -3
`CCC/C(C(=O)NCCO)=C1/c2ccccc2C(=O)N1c1ccccc1` is entered as Bead autofluor: 4140; PrP UTR inh: -24
`O=C(N/N=C/c1ccco1)c1ccc(NC(=O)C2CCCCC2)cc1` is entered as Bead autofluor: 5311; PrP UTR inh: 3

The list goes on.
compound,Bead autofluor,PrP UTR inh
COc1ccc([C@@H](OC)[C@@]2(Cc3ccc(O)cc3)N=C(N)N(C)C2=O)cc1,4359,-16
Cc1ccc(NC(=O)c2ncn(CCCNCC3CCCO3)n2)cc1C (stereo unspecified),2986,-12
CCOC(=O)c1ccc(/[N+]([O-])=C/c2ccccc2)cc1,2925,-40
CCN(CC)c1ccc(C=C2SC(=S)NC2=O)cc1,6096,-28
COC(=O)C1=C(c2ccc(OCc3ccccc3)cc2)C[C@@H]2CC[C@H]1N2C(=O)NCCCc1ccccc1,3022,-14
CN1OC[C@@H]2CN[C@H](c3ccccc3Br)C[C@@H]21,3601,-18
CC(C)[N+]1(C)[C@@H]2CC[C@@H]1CC(OC(=O)C(CO)c1ccccc1)C2 (stereo partly specified),4396,-7
CC(=O)Nc1ccc(/C(N=Nc2ccccc2)=N/N=C(N)N)cc1,3333,-60
CCC(=O)OC1(C(=O)CCl)[C@@H](C)C[C@H]2[C@@H]3CCC4=CC(=O)C=C[C@]4(C)[C@@]3(F)[C@@H](O)C[C@@]21C (stereo partly specified),5841,-53
C[C@H](CO)N1C[C@H](C)[C@@H](CN(C)C(=O)Nc2ccc(C(F)(F)F)cc2)Oc2ccc(NC(=O)Cc3ccccc3)cc2C1=O,4648,-7
COCc1cc(C)nc(OCC(=O)N/N=C/c2ccc(OC)c(O)c2)c1C#N,2189,-16
CCN1C[C@@H]2[C@@H]3C(=O)N(C)C(=O)[C@@H]3[C@](C)(C1=O)N2C(=O)c1ccccc1,3879,-12
COC(=O)[C@@]12CCCN1[C@H](c1ccc(-c3ccc(OC)cc3)c(OC)c1)[C@@H]1C(=O)N(C)C(=O)[C@@H]12,4590,4
Oc1ccc(C[C@H]2CNC(=S)N2CC2CCCN2C[C@H](Cc2ccc(O)cc2)N2C[C@H](Cc3ccccc3)N(CC3CCCCCC3)C2=S)cc1 (stereo partly specified),2839,-18
COc1cc(OC)cc(-c2sc3ccc(OC)cc3c2C#CCCO)c1,4081,-14
C[C@H](CO)N1C[C@H](C)[C@@H](CN(C)C(=O)Nc2ccccc2)Oc2ccc(NC(=O)NC3CCCCC3)cc2C1=O,4074,-19
COc1cccc(/C=N\Nc2nncc(-c3ccccc3)n2)c1,2996,-64
COc1cc2c(cc1OC)C(=O)N1[C@H]3c4cc(Cl)ccc4OC[C@@H]3[C@H](c3ccccc3)[C@]1(C)C(=O)N2,3978,-112
NC(=O)c1cc(Cl)ccc1OCC(=O)Nc1ccc2c(c1)OCO2,3923,-63
CN(C)CCNC(=O)c1cccc2nc3cccc(F)c3nc12,2882,3
COc1ccc(-c2c(C#Cc3ccc(N(C)C)cc3)c3ccccc3n2C)cc1,2377,-12
CN1CCC[C@H]1CCNc1ccc2c(=O)c3ccccc3n(C)c2c1,3831,-3
Cc1c(Cl)cccc1NC(=O)C1CC(=O)N(C2CCCC2)C1 (stereo unspecified),3958,0
COc1ccc(S(=O)(=O)Nc2cccc3c2O[C@H](CN(C)S(=O)(=O)c2cn(C)cn2)[C@@H](C)CN([C@H](C)CO)C3=O)cc1,4022,-19
Nc1ccc2c(c1)[nH]c(=O)c1ccccc12,3822,-9
C=CCC[C@H](Cc1ccc(F)cc1)C(=O)OC[C@@H](NC(=O)[C@@H](CC=C)CC(=O)N[C@@H](CO)Cc1ccccc1)C(C)(C)C,3821,-13
COc1cc(OC)cc(-c2sc3ccc(OC)cc3c2C#CC2(N)CCCCC2)c1,3524,-11
CC(C)c1ccc(/C=N/Nc2cc(N3CCOCC3)nc(N3CCOCC3)n2)cc1,10796,-33
N[C@@H](Cc1cnc[nH]1)C(=O)Nc1ccc2ccccc2c1,5162,-20
CCOc1ccc(/C=N/NC(=O)c2ccc(O)cc2)cc1CN1CC2CC(C1)c1cccc(=O)n1C2 (stereo unspecified),5512,-22
CCCCN1C(=N)N([C@@H](C)CN2CCC[C@H]2CN2C(N)=NC[C@H]2CC(C)C)C[C@H]1Cc1ccccc1,3470,-17
C=CC(=O)N1C/C(=C/c2ccc(Cl)cc2)C(=O)/C(=C\c2ccc(Cl)cc2)C1,4730,30
c1ccc2c(c1)Nc1cc3ccccc3cc1O2,4217,-74
CCCn1c(N)c(N(CCOC)C(=O)CSc2cc(C)c3ccccc3n2)c(=O)[nH]c1=O,3635,-13
CC(C)NC(=O)N(C)C[C@H]1Oc2ccc(NC(=O)Nc3ccccc3)cc2C(=O)N([C@@H](C)CO)C[C@@H]1C,3977,-8
